Screening data as filed in PubChem BioAssay.
Rango release inh = prevents RanGTP from dissociating the Rango-importin beta complex | O95149+P62826 | Biochemical FRET Rango-importin beta, RanGTP-induced dissociation | Potency, µM (series often up to 46.1 µM), inactives show at the top dose activity change, negative = inhibition | 340,000 compounds, 0.071% hits; active means falling FRET ratio curve, often poorly fitted, with flat reads before Ran was added; inconclusive means other falling curves, or compound fluorescence or quenching; inactive means flat or rising ratio curve;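 note: potency is the fitted concentration of half-maximal effect; % of control where 0% means no effect; nearly all actives have a fitted effect of over 45% in size; -100% = wells without RanGTP and RCC1; the record marks most hits as doubtful in a second field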
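Compounds sat 5 min at room temperature with 0.1 uM Rango biosensor plus 0.25 uM importin beta, then FRET pre-read. RanGTP-RCC1 (0.6 uM Ran, 2mM GTP, 0.2 uM RCC1) added for 45 min, and the CFP/YFP post-read measured blocked complex dissociation.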
GLA inh pH 4.5 = inhibitors of human alpha-galactosidase A at pH 4.5. AID 1467. activity change, negative = inhibition, % at 105 µM. purified enzyme, 4-MU-alpha-Gal fluorescence, pH 4.5. 230,000 tested, under 10 active; inconclusive = small, poorly fitted or top-dose-only inhibition, or a rising curve; inactive = flat fitted curve, though single readings scatter; no compound was filed as active;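 note: 0% = full activity with enzyme and -100% = basal without enzyme; dose as in the result columns while the protocol names 77 µM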
Target sequence (P06280 whole entry, looked up): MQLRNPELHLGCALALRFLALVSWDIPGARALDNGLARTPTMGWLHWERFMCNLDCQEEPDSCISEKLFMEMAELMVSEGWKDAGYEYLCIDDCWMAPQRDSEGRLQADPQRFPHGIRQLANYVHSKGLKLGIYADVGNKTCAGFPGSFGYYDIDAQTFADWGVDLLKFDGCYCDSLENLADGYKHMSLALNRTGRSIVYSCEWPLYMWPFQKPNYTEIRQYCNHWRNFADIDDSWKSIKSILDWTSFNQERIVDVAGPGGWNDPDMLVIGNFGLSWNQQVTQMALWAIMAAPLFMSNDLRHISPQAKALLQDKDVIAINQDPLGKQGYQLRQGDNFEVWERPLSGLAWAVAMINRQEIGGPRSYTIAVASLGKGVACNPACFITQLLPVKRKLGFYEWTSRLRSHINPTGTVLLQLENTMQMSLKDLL
miR-21 reporter = raises the signal of a miR-21 reporter | HeLa miR-21 FLuc reporter, luciferase, 48 h | Potency, µM (highest dose often 38.3 µM), for inactives: top-dose reporter change, positive = more light | 340,000 tested, under 10 active | AID 2288; active = well fitted rising curve with a large enough effect; inconclusive = small, poorly fitted or top-dose-only effect; inactive = no such curve, though single readings can be large or run the other way;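 note: % of control where 0% means no effect; miR-21 action dims this reporter so a rising signal means less miR-21 action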
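HeLa cells stably expressing CMV-driven firefly luciferase with a downstream miR-21 binding sequence, endogenously expressing miR-21, were treated with titrations (up to about 40uM final) for 48 hours at 37 degree Celsius. Luciferase luminescence was read after lysis.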
Rango complex inh = Rango-importin beta binding inhibition | 340,000 compounds, 0.031% hits | AID 540263 | Rango CFP/YFP FRET sensor + importin beta, 45 min | Q14974 | Potency, µM (doses to about 92.2 µM), for the others: at the top dose inhibition of complex formation; active = rising FRET ratio curve, often small or poorly fitted; inconclusive = mostly compound fluorescence or quenching in the first reads; inactive = flat curves in all reads;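 note: potency is the fitted concentration of half-maximal effect; 0% = DMSO wells and 100% = buffer wells lacking importin beta; nearly all actives have a fitted effect of over 15% in size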
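FRET biosensor (snurportin 1 IBB flanked by EYFP and cerulean), 50 nM, with compound 5 min, then 0.125 microM importin beta in PBS, 1 mM DTT, 0.02% Tween-20, 0.1% BSA. CFP/YFP ratio read after 45 min at room temperature; pre-read flags interference.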
Active calls of the source: *; ? = inconclusive; . = no result given; & = joins results of further samples. Only part of the results is shown. The share of hits here may be higher or lower than overall.

#	structure	miR-21 reporter	Rango complex inh	Rango release inh	GLA inh pH 4.5
1	COc1ccccc1CN1CCNC(=O)C1CC(=O)N(C)Cc1cnccn1 (stereo unspecified)	-0.5%	-7.0%	1.2%	5.4
2	CC1CCCC(C)N1C(=O)COC(=O)c1nn(C)c(=O)c2ccccc12 (stereo unspecified)	-4.0%	-1.0%	22.4%	.
3	CCN(CC)S(=O)(=O)c1ccc(NC(=O)c2cccnc2Cl)c(NC(=O)c2cccnc2Cl)c1	27.1%	8.3%	-6.0%	2.1
4	COc1ccccc1C(=O)N1CCN=C1SCc1cccnc1	-8.9%	2.1%	1.7%	-6.8
5	Cc1nc(NC(=O)CN(C)S(=O)(=O)c2ccc(Cl)cc2)sc1C	6.2%	-0.5%	-9.3%	4.7
6	COc1cc(NC(=O)[C@@H](NC(=O)N2CCn3c2nc2ccccc23)C(C)C)cc(OC)c1	2.3%	2.7%	0.2%	.
7	CC1(C)C2CC=C(/C=N/n3cnnc3)C1C2 (stereo unspecified)	-1.6%	0.5%	7.9%	-3.2
8	CCOC(=O)N1CCC(=NNC(=O)c2cc3ccccc3cc2O)CC1	-7.8%	?	?	1.1
9	N#Cc1cc(-c2ccccc2)nc(Oc2ccccc2)n1	-8.1%	-3.1%	16.0%	5.5
10	O=S(=O)(c1ccc(-c2ccccc2)cc1)N1CCOCC1	-8.4%	3.5%	15.9%	10.6
11	CC(C)CC(=O)N1CCN(Cc2ccc3c(c2)OCO3)CC1	-2.5%	0.5%	0.8%	3.5
12	Cc1ccccc1C(=O)N=c1ccn(-c2nc3ccccc3nc2NS(=O)(=O)c2ccccc2)cc1	2.1%	1.8%	-27.4%	.
13	CCC1CCC(N2CCN(c3ccc(F)cc3)CC2)CC1 (stereo unspecified)	4.4%	3.1%	-0.4%	.
14	CCCn1c(SCC(=O)NC(C)C)nc2sc3c(c2c1=O)CCC3	9.6%	?	?	.
15	CCCCc1c(C)[nH]c(=S)[nH]c1=O	-3.1%	-1.1%	-20.7%	-6.6
16	COc1ccc(CNC(=O)c2ccc(CN3CCOCC3)cc2)cc1	-21.7%	2.3%	-4.3%	0.4
17	CCOC(=O)c1sc(-c2ccc(OC)cc2)cc1N	-69.1%	1.1%	-5.2%	-10.3
18	CC(=O)N1CCc2cc(S(=O)(=O)NCCC(=O)NC3CCN(Cc4ccccc4)CC3)ccc21	1.8%	-1.0%	1.4%	-6.0
19	COc1ccc(-n2nc(C(=O)NCC(=O)Nc3cc(Cl)c(OC)cc3OC)c3ccccc3c2=O)cc1	7.0%	4.8%	4.1%	.
20	Cc1ccc(Cl)cc1N(CC(=O)NC1CCCC1)C(=O)c1csnn1	3.8%	8.1%	8.7%	.
21	Cc1ccc(N2CCN(C(=O)c3cn(CC4CCCCC4)nn3)C(C)C2)cc1 (stereo unspecified)	.	-0.3%	9.5%	.
22	O=C(CSc1nnc2c(n1)[nH]c1ccc(F)cc12)NC1CC1	-3.4%	0.5%	6.8%	.
23	CNc1ncnc(NC)c1[N+](=O)[O-]	.	3.1%	-3.3%	.
24	Cc1ccc(S(=O)(=O)N2CCN(C(=O)CSc3nc4ccccc4c(=O)[nH]3)CC2)cc1	1.2%	-4.6%	-18.4%	0.6
25	O=C(c1ccccc1)c1cccc(NC(=O)C2CC2)c1	-7.5%	0.1%	-1.5%	-0.5
26	COc1ccc(CCNC(=O)CCC(=O)NC2CCCCC2)cc1OC	-0.7%	-0.9%	0.5%	.
27	Cc1ccc(-c2cc(=O)c3ccc(Cl)cc3[nH]2)cc1	-2.7%	-2.8%	2.0%	-11.5&6.8
28	CCNc1[nH]c(=O)n(C)c(=O)c1N=O	2.8%	?	?	-8.4
29	CCOP(=O)(c1ccccc1)C(O)c1ccc([N+](=O)[O-])cc1 (stereo unspecified)	-1.2%	0.6%	14.7%	.
30	CN(C)CCN1C(=O)C(=O)/C(=C(/O)c2ccccc2)C1c1ccccc1F (stereo unspecified)	-3.6%	-1.6%	2.8%	-10.4

The results go on:
#	structure	miR-21 reporter	Rango complex inh	Rango release inh	GLA inh pH 4.5
31	CCN(CC)C(=O)Cn1c(=O)n(C)c2ccccc21	-2.4%	-0.7%	3.2%	2.2
32	Cc1c(C)c2c(c(C)c1O)CCC(C)(C(=O)O)O2 (stereo unspecified)	.	-4.6%	0.7%	.
33	CC(=O)Nc1ccc(Nc2ccc3c4c(cc(=O)n3C)-c3ccccc3C(=O)c24)cc1	0.6%	-1.2%	-1.9%	3.9
34	COc1ccc(CCNC(=O)C(=O)NCC2OCCCN2S(=O)(=O)c2cc(C)ccc2C)cc1 (stereo unspecified)	4.2%	-0.2%	-5.1%	.
35	CN(C)c1ccc(C=c2c3ccccc3n3c2c2c([n+]3C)CCCC2)cc1	.	-5.7%	2.3%	.
36	Cc1ccc(Cl)cc1NC(=O)c1ccccc1OCC(=O)Nc1ccc(Cl)cc1	-5.0%	?	23.0%	1.3
37	Cc1ccc([N+](=O)[O-])cc1S(=O)(=O)NCCc1cn2ccccc2n1	0.5%	-0.3%	?	0.3
38	CC1CCCC(NC(=O)COC(=O)c2cc(=O)[nH]c3ccccc23)C1C (stereo unspecified)	.	-4.4%	10.7%	.
39	c1ccc(CN=C(NCc2ccccc2)NCc2ccccc2)cc1	.	1.6%	-7.4%	.
40	CCOc1c(Cl)cc(CNC(C)(C)CC(C)(C)C)cc1OC	8.0%	3.6%	?	-14.7
41	CCCCNC(=O)c1ccc(CS(=O)(=O)Cc2ccccc2F)o1	-1.0%	-1.0%	3.2%	8.2
42	CCOc1ccc(CCNC(=O)CSc2nnnn2C)cc1OCC	-4.9%	1.2%	4.2%	2.4
43	O=c1c2ccccc2nc(SCc2nnc(-c3ccccc3Br)o2)n1-c1ccccc1	-23.2%	1.9%	14.6%	3.3
44	CCN(CC#CCC1(O)c2ccccc2-c2ccccc21)CCO	1.1%	3.2%	-8.8%	-13.6
45	Cc1ccc(OCc2cc(C(=O)NC3CCOC3)no2)cc1C (stereo unspecified)	-18.9%	1.2%	-1.1%	.
46	CCOc1ccc(-c2cc(CCCC(=O)NCCc3ccccc3)no2)cc1	20.7%	-0.8%	0.2%	-3.3
47	O=C(O)c1ccccc1C(=O)OCCc1cc2ccccc2c(=O)o1	.	0.3%	2.7%	.
48	CCSc1nnc(NC(=O)[C@@H](NC(=O)c2ccccc2F)C(C)C)s1	-16.9%	-2.2%	-6.5%	-6.8
49	CCCC(CCC)C(=O)Nc1ccc2c(c1)N(C(=O)CCN1CCN(C)CC1)c1ccccc1CC2	-0.5%	-2.7%	17.0%	2.3
50	CCOC(=O)C1CCCN(Cc2ccccc2C)C1 (stereo unspecified)	-4.8%	-1.0%	20.5%	-4.7
51	Cc1ccc(CNC(=O)C2CCC(=O)N(CC3CCCCC3)C2)o1 (stereo unspecified)	-3.0%	-0.5%	-5.9%	.
52	O=C(Cc1ccccc1)N[C@@H](Cc1ccccc1)c1nc2ccccc2[nH]1	-1.0%	-2.1%	-3.0%	4.3
53	COCCN1CC(C(=O)NCc2ncccc2C)CCC1=O (stereo unspecified)	-0.7%	2.2%	-25.6%	.
54	Cc1cc(C)c(S(=O)(=O)N2CCCC(C(=O)NC3CCCC3)C2)c(C)c1 (stereo unspecified)	-1.7%	-3.7%	5.9%	.
55	Oc1cc(-c2ccc(N3CCCCC3)nc2)cc2cccnc12	.	?	-7.8%	.
56	O=C(CN(C1CCCCC1)S(=O)(=O)c1ccccc1)NCc1cccnc1	-4.4%	0.3%	1.0%	4.3
57	Cc1cccc(NC(=O)COC(=O)C(NC(=O)c2cccc(S(=O)(=O)N3CCOCC3)c2)C(C)C)c1 (stereo unspecified)	.	2.6%	-2.8%	.
58	C=CCN(c1ccccc1)S(=O)(=O)c1cccc(C(=O)NCC2CCCO2)c1 (stereo unspecified)	-5.9%	2.8%	-6.2%	.
59	O=C(c1ccc(F)c(S(=O)(=O)N2CCOCC2)c1)N1CCN(c2ncccn2)CC1	.	-1.8%	23.1%	.
60	CC(C)(C)NC(=O)c1ccc(COc2ccc(Cl)cc2Cl)o1	3.6%	4.5%	-9.7%	.

The results go on.
#	structure	miR-21 reporter	Rango complex inh	Rango release inh	GLA inh pH 4.5
61	CCCCOCP(=O)(CC)COCCCC	-2.3%	-4.4%	14.7%	9.1
62	Cc1cnc(C(=O)OCC(=O)NC2CCCCC2)cn1	-4.0%	-1.1%	2.4%	-0.8
63	Cc1ccc(C(=O)CSc2nnc(-c3ccncc3)n2C)cc1	3.3%	-0.3%	-7.8%	-19.4
64	CCOc1cc(C(=O)NC2=NCCS2)cc(OCC)c1OCC	-3.9%	-0.2%	-7.6%	-6.0
65	COCCCNC(=O)C1CC(=O)N(Cc2ccc(OC)cc2)C1 (stereo unspecified)	1.7%	-6.4%	8.3%	0.6
66	CC(NC(=O)CCNC(=O)c1ccco1)c1ccccc1 (stereo unspecified)	.	-0.9%	8.9%	.
67	Cc1ccccc1CC(=O)Nc1cccnc1	2.6%	0.0%	-11.0%	.
68	O=C(c1cc(S(=O)(=O)N2CCOCC2)ccc1F)N(CCc1ccccc1)Cc1ccccc1	.	1.4%	-12.4%	.
69	CC(=O)c1cccc(NC(=O)c2ccccc2N(C)S(=O)(=O)c2ccc(C)cc2)c1	7.9%	-3.4%	-12.1%	.
70	Cc1ccc(NC(=S)N(CCN(C)C)C(C)c2ccco2)cc1Cl (stereo unspecified)	5.0%	3.9%	10.1%	-5.0
71	COc1cc(OC)cc(C(=O)Nc2ccc3nc4n(c(=O)c3c2)CCCCC4)c1	-80.5%&-48.5%	-1.5%	5.1%	.
72	CCCCn1c(N)c(N(CC(C)C)C(=O)C2CC(=O)N(Cc3ccccc3)C2)c(=O)[nH]c1=O (stereo unspecified)	.	-0.2%	-7.1%	.
73	COc1ccccc1N1CCN(c2cnccn2)CC1	-5.1%	1.0%	15.2%	-6.8
74	CC(=O)NC(C)C(=O)OCC(=O)c1ccc(Cl)s1 (stereo unspecified)	-4.2%	-1.7%	10.8%	-2.8
75	Cn1c(C(=O)N2CCCc3ccccc32)cc2sccc21	-17.1%	-0.2%	-14.5%	-3.9
76	O=Cc1ccc(OC(=O)c2cc(Cl)nc3ccccc23)cc1	1.8%	-1.3%	-6.7%	2.2
77	CCOC(=O)C1CCN(c2c(NCc3ccc(C(=O)N(C)Cc4ccccc4)cc3)c(=O)c2=O)CC1	-1.7%	-1.8%	6.2%	1.3
78	CCC(CO)NCC#Cc1ccccc1 (stereo unspecified)	-1.6%	0.0%	0.0%	-27.5
79	COc1cccc(-c2nc(CS(=O)(=O)CC(=O)N3CCCCC3)c(C)o2)c1	4.2%	1.2%	9.6%	.
80	CCN(C(=O)C1CCCCC1)c1nnc(-c2cccnc2)s1	-20.4%	-4.3%	10.8%	-2.1
81	CCOC(=O)N1CCC(NS(=O)(=O)c2ccc3c(c2)CCN3C(C)=O)CC1	4.7%	1.5%	-17.2%	1.8
82	C=CCc1ccc(OCCOCCOc2ccccc2[N+](=O)[O-])c(OC)c1	-14.3%	2.1%	-7.7%	-23.5
83	COC(=O)c1ccc(CSc2nnc(-c3ccccc3)n2C)o1	-1.8%	1.8%	2.5%	3.3
84	CN(c1ccc2nc3ccccc3c(=O)n2n1)C1CCCCC1	?	-3.4%	-28.8%	3.0
85	O=C(O)CCC(=O)N1CCN(c2nc(-c3ccccc3)c3cc(Br)ccc3n2)CC1	-1.3%	?	?	.
86	CCOC(=O)C1CCN(C(=O)CSc2nc(N)cc(=O)[nH]2)CC1	1.6%	1.5%	3.8%	.
87	O=C(c1nc2ccccn2c1CN1CCCC(O)C1)N1CCN(C2CCCCC2)CC1 (stereo unspecified)	-3.5%	?	?	.
88	OCC1(O)OC[C@@H](O)[C@H]1O (stereo partly specified)	3.1%	-1.4%	11.6%	5.8
89	CN(C)CCCN(C(=O)c1ccc(S(=O)(=O)N(C)C)cc1)c1nc2ccc(F)cc2s1	-14.6%	2.4%	17.2%	-4.7
